VACV Venus inh – vaccinia inhibition (Venus reporter). actives 0.46% (n = 330,000). Potency, µM (series often up to 36.5 µM), for the others: at the highest dose activity change, negative = inhibition, hits mostly inhibitors. Vaccinia virus Venus reporter expression, fluorescence; active means well fitted inhibition curve with a large enough effect; inconclusive means small, poorly fitted or top-dose-only effect; inactive means no such curve, though single readings can be large or run the other way; tested in A549 cells; also: nearly all actives have a fitted effect of over 30% in size; inactives centre near -10
Vaccinia mCherry – vaccinia inhibition (mCherry reporter); Vaccinia virus mCherry reporter infection, fluorescence; about a quarter of the inactives have no number; Potency, µM (highest dose often 36.5 µM), for the others: at the highest dose activity change, negative = inhibition, hits mostly inhibitors; actives 0.63% (n = 310,000); active = well fitted inhibition curve with a large enough effect; inconclusive = small, poorly fitted or top-dose-only effect; inactive = no such curve, though single readings can be large or run the other way; tested in A549 cells; also: nearly all actives have a fitted effect of over 35% in size; inactives centre near -10
* = called active by the depositor; i = inactive; ? = inconclusive; · = not tested or not shown; [ ] = another dose, or the depositor's remark. % is scaled to controls: 0 for no effect and ±100 for the full control effect; potency is read from the fitted curve at half-maximal effect.

SMILES | VACV Venus inh | Vaccinia mCherry
Cc1cc(NC(=O)Cn2nnc(-c3ccccc3NC(=O)c3ccccc3F)n2)no1 | -13% | -24%
Cc1ccc(/C=N/NC(=O)C(NC(=O)c2ccccc2)c2n[nH]c(=O)c3ccccc23)cc1 (centres undefined) | -29% | ?
N#Cc1c(N)nc(N)nc1Nc1ccc(Br)cc1 | -24% | -22%
CCOC(=O)Nc1sc(NS(=O)(=O)c2ccccc2)nc1C | -3% | -10%
COc1ccc(C(c2c(O)nc(SC)n(C)c2=O)c2c(O)nc(SC)n(C)c2=O)cc1O | -1% | -15%
O=C(NCc1ccco1)c1ccc2c(=O)n(CCC3=CCCCC3)c(=O)[nH]c2c1 | -1% | -12%
CCOC(=O)Nc1ccc2c(c1)N(C(=O)N1CCN(C)CC1)c1ccccc1CC2 | -15% | i
O=C(NC1CCN(C(=O)Nc2ccc(F)cc2)CC1)c1ccccc1F | 4% | 22%
CC(=O)Nc1cccc(/C(C)=N/Nc2nc3ccccc3s2)c1 | ? | ?
Cc1ccnc(NC(=O)CCC(=O)N(CC(=O)NCCc2ccccc2)Cc2ccco2)c1 | -7% | ·
CCOC(=O)C1=C[C@@H](CC)N(S(=O)(=O)c2ccccc2)[C@H]1c1ccccc1 | -13% | 0%
Cc1ccc(N=C2NC(=O)/C(=C/c3cccn3C)S2)cc1C | -23% | -28%
COc1cccc2sc(NNC(=O)c3nc4ccccc4s3)nc12 | -13% | ?
CSc1nc(-c2ccc(F)cc2)cc(=O)[nH]1 | -1% | -16%
CCCCn1c(N)c(N(CC(C)C)C(=O)c2c(CC)noc2C)c(=O)[nH]c1=O | -15% | -1%
CCCCNC(=S)NNC(=O)c1c(C)nc2ccccn12 | -7% | -19%
CCOC(=O)[C@]12CCC=C1N(CCC1=CCCCC1)C(=O)[C@H](CC(=O)NCC1CCCCC1)C2 | -4% | -14%
NS(=O)(=O)c1ccc(CCNCc2cc(Br)ccc2OCc2ccccc2F)cc1 | ? | ?
CC(C)Oc1ccccc1-c1nc(SCC(=O)c2ccc(F)cc2)n[nH]1 | -14% | -13%
CCCCN(C)C(=O)CSc1nc2ccccc2nc1Cc1ccc(C)cc1 | 0% | i
O=C(Cn1c(SCc2cccc(F)c2)nc2ccncc21)Nc1ccc(Cl)cc1F | -9% | -12%
Cc1ccc(S(=O)(=O)N2CCOCC2)cc1C(=O)OC1CCOC1=O (centres undefined) | -3% | -16%
Cc1sc(NC(=O)C2CC(Cl)=CCC2C(=O)O)c(C#N)c1C (centres undefined) | -1% | i
Cc1ccc(S(=O)(=O)N2CCN(C(=O)COC(=O)CCOc3ccc(C(C)(C)C)cc3)CC2)cc1 | -5% | -23%
COc1ccc(-c2nc3ccccc3c(=O)n2-c2ccc(OC)cc2)cc1 | -4% | -1%

Other records:
SMILES | VACV Venus inh | Vaccinia mCherry
CC1CN(c2ccc([N+](=O)[O-])cc2C#N)CC(C)O1 (centres undefined) | -12% | -2%
N#Cc1ccccc1C[C@H](N)C(=O)NC[C@H]1O[C@@H](n2cnc3c(N)ncnc32)[C@H](O)[C@@H]1O | 1% | 22%
COCCn1c(C23CC4CC(CC(C4)C2)C3)n[nH]c1=S | 12% | ·
COc1ccc(CNC(=O)CCN2C(=O)[C@@H]3Cc4ccccc4CN3C2=O)cc1 | -16% | -30%
CCOc1ccc(Cc2nnc(SCC(=O)Nc3ccccc3)n(N)c2=O)cc1 | -15% | i
COC(c1ccccc1)c1nnc(CCC(=O)N2CCN(CCOc3ccccc3)CC2)o1 (centres undefined) | -9% | -18%
Cc1oc(/N=C/c2ccccc2)c(C#N)c1C | -1% | -6%
COc1cc(Cl)c(C)cc1NC(=O)c1ccccc1-n1cnnn1 | 0% | 3%
COc1ccc(C)cc1NC(=O)C(NS(=O)(=O)c1cccc2nsnc12)c1ccccc1 (centres undefined) | -7% | i
O=C(NNc1ccccn1)C(=O)NNS(=O)(=O)c1ccc(F)cc1 | -28% | ?
COc1ccc(CN2C(=O)C(CC(=O)NC3CCCC3)CC(C(=O)N3CCOCC3)=C2C)cc1 (centres undefined) | 0% | i
CCCCNC(=O)CNC(=S)N(Cc1ccccc1F)C1CCCCC1 | -10% | -3%
O=c1[nH]c(SCc2ccccc2F)nc2ccccc12 | -12% | -8%
CCN(CC(=O)Nc1ccc2c(c1)OCCO2)C(=O)c1ccc(C(F)(F)F)cc1 | -18% | -27%
C[C@H](NC(=O)c1cc2cc(Cl)ccc2n1C)C(=O)N[C@@H](C(=O)O)c1ccccc1 | 2% | i
O=C(NCCCn1ccnc1)c1cc(C(=O)C2CCCCC2)c[nH]1 | -10% | -1%
COc1ccc(CCNC(=O)COc2coc(CN3c4ccccc4CC3C)cc2=O)cc1OC (centres undefined) | -15% | 0%
Cc1cccc(NC(=O)C2(c3ccccc3)CCOCC2)c1 | 0% | -6%
Cc1cccc(Oc2nc3c(c(=O)n(C)c(=O)n3C)n2C)c1C | -3% | 5%
CCOC(=O)C1(Cc2cccc(Cl)c2)CCCN(CCO)C1 (centres undefined) | -7% | i
CN(C)C(CNC(=O)NC1CCCCC1)c1cccnc1 (centres undefined) | -12% | -19%
COc1ccccc1C(=O)N/C(=C\c1ccccc1)C(=O)NC(C)C(=O)O (centres undefined) | -16% | -1%
COc1ccc2c(c1OC)C(=O)OC2Nc1ccccc1S(=O)(=O)C(F)F (centres undefined) | -7% | -7%
O=C(CCC1CCCN(C(=O)CCC(F)(F)F)C1)NCc1ccc(F)c(F)c1 (centres undefined) | -9% | -12%
Cc1cccc(-n2cc(-c3ccccc3)c3c(NC(C)C)ncnc32)c1 | -10% | i

(list continues)
SMILES | VACV Venus inh | Vaccinia mCherry
CCc1nn(CC(=O)NCCCc2ccccc2)c(=O)c2cc3cc(F)ccc3n12 | 3% | 6%
C=CCSc1nnc(Cn2c(=O)sc3ccccc32)n1C | 1% | 3%
Cc1cc(C)c([N+](=O)[O-])cc1-c1ccc(/C=N/NC(=O)c2nonc2N)o1 | -9% | ·
CC(OC(=O)c1ccc(Cl)nc1)C(=O)NC(C)(C)C (centres undefined) | -5% | -2%
O=C(Nc1cc(S(=O)(=O)N2CCOCC2)ccc1N1CCOCC1)c1c(F)cccc1Cl | -23% | -20%
CCOC(=O)N1CCN(C(=O)c2ccc(N3C(=O)c4ccccc4C3=O)cc2)CC1 | -26% | ·
CS(=O)(=O)c1ccc(Cl)c(NC(=O)COC(=O)CCN=C2NS(=O)(=O)c3ccccc32)c1 | -8% | -12%
CCc1nc2ccc(C(=O)NCCc3c[nH]c4ccccc34)cn2c1N(C)CCCc1ccccc1 | ? | -17%
OCC1CCCN(c2ncnc3scc(-c4ccccc4)c23)C1 (centres undefined) | -20% | -23%
CC1(c2ccccc2)NC(=O)N(CC(=O)N(CC(=O)Nc2ccccc2C(F)(F)F)Cc2ccco2)C1=O (centres undefined) | -11% | -16%
O=C(COCc1cc(-c2cccs2)on1)N1CCN(c2ccccc2)CC1 | -16% | i
O=C(NCc1ccccc1)c1csc2c1CCCCC2 | -23% | ?
CC(C)CC(NC(N)=O)C(=O)OCC(=O)Nc1ccc(SC(F)F)cc1 (centres undefined) | -7% | i
CCCCn1c(N)c(N(CCOC)C(=O)c2cccc(S(=O)(=O)N(C)c3ccc(C)cc3)c2)c(=O)[nH]c1=O | -17% | i
COC(=O)Cc1ccccc1NS(=O)(=O)c1ccc(C)cc1 | -7% | -10%
Cc1ccc(Cl)cc1Nc1nn2c(=O)c3ccc(C(=O)NC(C)c4ccccc4)cc3nc2s1 (centres undefined) | -24% | ?
Cc1ccccc1-c1nnc(-c2ccc(Cl)cc2)o1 | 4% | -1%
Cc1ccc(NC(=O)C(=O)NCCc2sc(-c3ccc(Cl)cc3)nc2C)cc1C | -9% | -11%
C=CCn1c(SCC(=O)Nc2ccc(Br)cc2)nc(O)c(CC)c1=O | -20% | i
Cc1ccc(-c2nc3c(C)cccn3c2Nc2ccccc2C)s1 | -10% | -15%
COc1ccc(-c2ccc(SCC(=O)NC3CCCC3)nn2)cc1OC | -15% | i
COc1ccc(Cn2c(=O)[nH]c3cc(C(=O)N4CCN(c5ccc(C(C)=O)cc5)CC4)ccc3c2=O)cc1 | -1% | -7%
CN(C)CCCNc1nc2cc(-c3ccc(F)cc3)sc2c(=O)n1C | -9% | 5%
Cc1cc(C)cc(OCC(=O)N(Cc2ccccc2)C2CCS(=O)(=O)C2)c1 (centres undefined) | 10% | 8%
COc1ccc(C(C)=O)cc1COc1ccc(Cl)cc1Cl | 0% | 18%

Some of these compounds in order of molecular weight, highest first.
SMILES | VACV Venus inh | Vaccinia mCherry
CC1(c2ccccc2)NC(=O)N(CC(=O)N(CC(=O)Nc2ccccc2C(F)(F)F)Cc2ccco2)C1=O (centres undefined) | -11% | -16%
COc1ccc(Cn2c(=O)[nH]c3cc(C(=O)N4CCN(c5ccc(C(C)=O)cc5)CC4)ccc3c2=O)cc1 | -1% | -7%
CS(=O)(=O)c1ccc(Cl)c(NC(=O)COC(=O)CCN=C2NS(=O)(=O)c3ccccc32)c1 | -8% | -12%
Cc1ccc(Cl)cc1Nc1nn2c(=O)c3ccc(C(=O)NC(C)c4ccccc4)cc3nc2s1 (centres undefined) | -24% | ?
O=C(Nc1cc(S(=O)(=O)N2CCOCC2)ccc1N1CCOCC1)c1c(F)cccc1Cl | -23% | -20%
CCc1nc2ccc(C(=O)NCCc3c[nH]c4ccccc34)cn2c1N(C)CCCc1ccccc1 | ? | -17%
CCc1nn(CC(=O)NCCCc2ccccc2)c(=O)c2cc3cc(F)ccc3n12 | 3% | 6%
COc1ccc(-c2ccc(SCC(=O)NC3CCCC3)nn2)cc1OC | -15% | i
Cc1cc(C)c([N+](=O)[O-])cc1-c1ccc(/C=N/NC(=O)c2nonc2N)o1 | -9% | ·
CN(C)CCCNc1nc2cc(-c3ccc(F)cc3)sc2c(=O)n1C | -9% | 5%
COc1ccc(C(C)=O)cc1COc1ccc(Cl)cc1Cl | 0% | 18%
O=C(NCc1ccccc1)c1csc2c1CCCCC2 | -23% | ?
Cc1ccccc1-c1nnc(-c2ccc(Cl)cc2)o1 | 4% | -1%

Other results.
SMILES | VACV Venus inh | Vaccinia mCherry
CCCCOc1cccc(/C=N/NC(=O)c2csc(C)c2C)c1 | -24% | -27%
COC(=O)c1ccc2nc(-c3ccc(Cl)cc3)c(Cc3ccsc3)n2c1 | -4% | -12%
O=C(O)CCCCCCNC(=O)c1cncc(O)c1 | 5% | 2%
C=C[C@@]1(C)CC(=O)[C@]2(O)[C@@]3(C)[C@@H](O)CCC(C)(C)[C@@H]3[C@H](OC(C)=O)[C@H](O)[C@@]2(C)O1 | -4% | 33%[activator]
CCOC(=O)N1CCC(Nc2c(NCCCN(CC)c3cccc(C)c3)c(=O)c2=O)CC1 | ? | -4%
COc1ccc(CC(=O)OCC(=O)c2ccc[nH]2)cc1 | -7% | -13%
C[C@]12CCC[C@H](O1)[C@H]([C@@H](O)c1ccccc1)O2 | -17% | i
O=c1cc(O)c(-c2ccccc2)c(Cl)[nH]1 | 3% | -3%
COc1ccc(Cl)cc1-c1cc(C(=O)Nc2ccc(C(C)(C)C)cc2)[nH]n1 | ? | ?
Cc1ccc(C2N3CC4([N+](=O)[O-])CN2CC([N+](=O)[O-])(C3)C4(C)C)cc1 (centres undefined) | -10% | i
CCOc1ccccc1NC(=O)Nc1nnc(N2CCCC(C)C2)s1 (centres undefined) | -19% | -18%
O=C(O)c1cn(C2CCCCC2)c2ccccc2c1=O | -13% | -14%
CCC(C(=O)NCCc1c[nH]c2cc(OC)ccc12)c1ccccc1 (centres undefined) | -5% | ?
COC(=O)[C@]12OC[C@]34C([C@@H](O)[C@@H]1O)[C@]1(C)CC(=O)C(O)=C(C)[C@@H]1C[C@H]3OC(=O)[C@H](O)[C@@H]24 (some centres undefined) | 0.89µM* | ?
O=C(O)CNC(=O)C(CS)Cc1ccccc1 (centres undefined) | -16% | -24%
CCSC(=O)N=Nc1ccc(O)cc1 | 6% | -11%
CCCOc1ccc(NC(=O)CC2C(=O)N(C)C(=S)N2Cc2ccc3c(c2)OCO3)cc1 (centres undefined) | ? | -28%
O=C(Nc1cc(F)ccc1F)C1CCN(C(=O)c2cnn(-c3ccccc3)c2-n2cccc2)CC1 | -9% | -15%
O=S1(=O)C=CC(c2ccccc2)C1 (centres undefined) | 1% | i
CC(CC(=O)Nc1ccc2c(c1)c(=O)n(C)n2Cc1ccc(Cl)cc1)C(F)(F)F (centres undefined) | -12% | 6%
CCN1CCc2c(OCc3ccccc3)cccc2C1=O | -2% | -5%
Cc1ccc(O)c(C(=O)c2cnc3c(c2)c(C)nn3-c2ccccc2)c1 | -13% | i
COc1cc([N+](=O)[O-])ccc1NC(=S)NCc1ccccn1 | -20% | ?
S=C(NCc1ccccc1)NCc1ccccc1 | -4% | -12%
CCC(=O)Nc1cccc(C(=O)/C=C/c2ccccc2)c1 | -19% | ·

Other structures
SMILES | VACV Venus inh | Vaccinia mCherry
Cc1nnc(SCc2cc(=O)c3ccccc3[nH]2)s1 | -5% | -5%
COc1ccc(CN2Cc3cc(-c4ccc(OC)cc4)ccc3-n3nncc3C2)cc1 | 0% | i
NC(=O)CCN1CCN(C(=O)c2ccc3nc(Cc4cccc(Cl)c4)oc3c2)CC1 | -6% | ?
O=C(COC(=O)/C=C/c1ccc2c(c1)OCO2)Nc1ccccc1 | -7% | -20%
Cc1ccc(C)c(N2CCN(C(=O)NCc3noc4ccc(C)cc34)CC2)c1 | -18% | -19%
CCN(CC)S(=O)(=O)c1ccc(NC(=O)c2ccc(Sc3nncn3C)c([N+](=O)[O-])c2)cc1 | ? | ?
CN1CCN(C(=S)SCC(=O)N2CCCc3ccccc32)CC1 | -9% | -6%
Cc1ccnc(N2CCC(C(=O)NNC(=O)c3ccccc3)CC2)n1 | -7% | i
O=C1CC(c2ccccc2)NC(=O)N1 (centres undefined) | -7% | ·
CC12C=CC(=O)C=C1CCC1C3CCC(O)(C(=O)CO)C3(C)CC3OC312 (centres undefined) | 0% | -5%
